Bioassay records deposited in PubChem by Johns Hopkins Ion Channel Center.
KCNQ2 block: KCNQ2 channel blockers in CHO-K1 cells – cell-based, FluxOR thallium flux, B-score, primary screen (AID 2156); B-score at 10 µM; O88943; 20 min; hits give low values; only compounds with negative scores are shown here; some inactives read as strong as hits; 1.1% of 310,000 active;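 active = fluorescence ratio B-score at most minus 3 library SDs, with starting brightness B-score within 2 library SDs, cut at about -5.5 in these data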
Target sequence (O88943 whole entry, looked up): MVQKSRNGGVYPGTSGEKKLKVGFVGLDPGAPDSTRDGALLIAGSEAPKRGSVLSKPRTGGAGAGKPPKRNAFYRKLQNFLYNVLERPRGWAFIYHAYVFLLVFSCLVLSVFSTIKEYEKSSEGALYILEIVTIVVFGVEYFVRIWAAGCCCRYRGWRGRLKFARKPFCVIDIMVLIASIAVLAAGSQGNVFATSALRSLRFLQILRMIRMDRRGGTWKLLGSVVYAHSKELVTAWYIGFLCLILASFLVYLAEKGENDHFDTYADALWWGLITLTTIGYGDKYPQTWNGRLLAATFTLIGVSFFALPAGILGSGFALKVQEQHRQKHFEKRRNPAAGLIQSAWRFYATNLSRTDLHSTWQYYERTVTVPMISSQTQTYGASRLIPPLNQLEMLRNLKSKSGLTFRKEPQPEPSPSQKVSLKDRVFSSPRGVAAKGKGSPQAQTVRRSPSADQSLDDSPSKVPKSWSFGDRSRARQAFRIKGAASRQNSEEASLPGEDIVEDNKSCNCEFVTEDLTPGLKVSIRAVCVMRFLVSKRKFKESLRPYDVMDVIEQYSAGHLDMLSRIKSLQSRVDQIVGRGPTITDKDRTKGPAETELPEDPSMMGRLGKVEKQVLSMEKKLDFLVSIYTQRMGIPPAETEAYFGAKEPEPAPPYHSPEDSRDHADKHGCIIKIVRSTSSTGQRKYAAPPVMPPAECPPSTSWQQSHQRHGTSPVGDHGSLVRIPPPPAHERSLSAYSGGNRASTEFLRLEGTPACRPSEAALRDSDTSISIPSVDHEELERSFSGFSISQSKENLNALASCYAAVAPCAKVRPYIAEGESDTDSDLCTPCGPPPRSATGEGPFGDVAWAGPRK
KCNQ2 block baseline: also measured in KCNQ2 block; calls as there; B-score; measured here: initial fluorescence intensity artifact check;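 brightness before thallium and not channel activity; 0 = typical well and far values either way flag optical interference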
* hit, by the source's call; i = inactive. Not all compounds are listed, so the mix of outcomes need not match the whole.

KCNQ2 block	KCNQ2 block baseline	SMILES
i	-0.03	O=C(CNC(=S)N(CCCN1CCOCC1)Cc1cccs1)NC1CCCCC1
i	-1	CC(C(=O)c1ccc(-c2ccccc2)cc1)[n+]1cccc(NC(=O)c2ccccc2)c1 (stereo not drawn)
i	0.39	COc1ccccc1CNS(=O)(=O)c1c(C)[nH]c(C)c1C(=O)N1CCCC1
i	-0.98	CCOC(=O)C(CSCC(=O)c1ccc(Cl)cc1)NC(=O)OC(C)(C)C (stereo not drawn)
-6.6*	-0.69*	CCOC(=O)c1cc(C)n(S(=O)(=O)c2ccc(C)cc2)c1C
i	0.13	CCn1c(=O)n(CC)c2cc(N3CCCC3)c(NC(=O)c3ccc(OC)c(Br)c3)cc21
i	-1.1	O=C(CCc1ccccc1)OCC(=O)c1cccc([N+](=O)[O-])c1
i	-0.05	CCOCCCNCc1ccc(OCc2ccccc2Cl)cc1
i	-0.59	O=C(CCCn1c(=S)[nH]c2ccc(Br)cc2c1=O)N1CCN(c2ccccn2)CC1
i	-0.14	Cc1ccccc1N1CCN(S(=O)(=O)c2nnc(NC(=O)c3ccc(F)cc3)s2)CC1
i	-0.03	Clc1cccc(-c2nc(NCC3CCCO3)c3ccccc3n2)c1 (stereo not drawn)
i	-0.29	OC(CSc1ccc(F)cc1)CN1CCN(c2ccccc2)CC1 (stereo not drawn)
i	1.8	Cc1cc(OCC(=O)N2CCN(c3ccccn3)CC2)c(C)cc1Br
i	-1.7	c1ccc(C(c2ccccc2)c2nc(-c3cccnc3)no2)cc1
i	-1.1	COc1cnc(-c2ccccc2)nc1Oc1ccccc1C
i	-1.1	CC1(C)Cc2c(sc(NC(=O)C(=O)N3CCOCC3)c2C(N)=O)CO1
i	0.01	CCn1c(-c2ccco2)n[nH]c1=S
i	1.4	COc1ccc(Cc2nnc(NC(C)=O)s2)cc1
i	3.8	COc1ccc(Cl)cc1NC(=O)CCc1nc(-c2ccccc2F)no1
i	-0.62	CCCCOc1ccc(C(=O)Nc2ccc(SC(F)F)cc2)cc1OC
i	0.91	CC1=CC(=O)C(C(C)=Nc2ccccc2Cl)C(=O)O1 (stereo not drawn)
i	0.02	CC(C)CN(C(=O)c1nn(C)c(=O)c2ccccc12)c1nc2ccccc2s1
i	0.47	COc1cccc(CNc2cccc(C(F)(F)F)c2)c1O
i	-0.26	COc1ccc(OC)c(NC(=O)C2C3CCC(O3)C2C(=O)O)c1 (stereo not drawn)
i	0.4	O=C(Oc1ccc(/C=N/O)cc1)c1ccccc1
i	-2.1	CCN(CC)C(=O)c1oc2ccc(S(=O)(=O)N3CCCCCC3)cc2c1C
i	-2.1	Cc1cc(Cl)cc(Cl)c1OCCOc1cccc2cccnc12
i	1.2	COc1cccc(-n2c(SCC(=O)O)nnc2-c2cccnc2)c1
i	0.78	CCn1c(SCc2ccc(F)cc2)nnc1C1CCN(S(=O)(=O)c2ccc(OC)cc2)CC1
i	-0.67	COc1ccc(CN(C(=O)c2nsc(Cl)c2Cl)C(C(=O)NC2CCCC2)c2ccc(OC)cc2)cc1 (stereo not drawn)
i	-1.2	Cc1ccc(CNc2nc(C)cs2)cc1
i	0.36	Cc1c(Cl)cccc1NC(=O)CCN1CCCCC1
i	0.84	COc1ccc(-c2cc(C(=O)N3CCCCCC3)no2)cc1
-6*	-2.3*	Cc1noc(C)c1CSc1nc2ccccc2n1CCc1ccccc1
i	0.02	O=C(CN(C(=O)CCC(=O)Nc1ccccn1)c1ccc(F)cc1)NCc1ccc(F)cc1
i	-1.2	O=C(CCn1nnc2ccccc21)OCC(=O)c1ccc([N+](=O)[O-])cc1
i	1.1	CCOC(=O)c1cnc2c(C)c(Cl)ccc2c1N1CCOCC1
i	-2.3	O=C(COC(=O)c1ccc(S(=O)(=O)Nc2ccccc2)cc1)NC1CCCC1
i	4	CCCN1Cc2cccc(C(=O)Nc3ccc4c(c3)OCO4)c2C1=O
i	1.2	CCCn1c(C(C)C)n[nH]c1=S

Compounds above that have an aryl thioether with sulfur outside any ring, in the order listed:
KCNQ2 block	KCNQ2 block baseline	SMILES
i	-0.29	OC(CSc1ccc(F)cc1)CN1CCN(c2ccccc2)CC1 (stereo not drawn)
i	-0.62	CCCCOc1ccc(C(=O)Nc2ccc(SC(F)F)cc2)cc1OC
i	1.2	COc1cccc(-n2c(SCC(=O)O)nnc2-c2cccnc2)c1
i	0.78	CCn1c(SCc2ccc(F)cc2)nnc1C1CCN(S(=O)(=O)c2ccc(OC)cc2)CC1
-6*	-2.3*	Cc1noc(C)c1CSc1nc2ccccc2n1CCc1ccccc1

More compounds
KCNQ2 block	KCNQ2 block baseline	SMILES
i	0.08	O=c1c2ccccc2cnn1CCOc1ccccc1
i	0.02	O=C(c1c[nH]c2ccc(S(=O)(=O)N3CCOCC3)cc2c1=O)N1CCCC1
i	0.02	COc1cc(/C=C/C(=O)OCC(=O)Nc2nnc(-c3ccccc3)o2)cc(OC)c1OC
i	3	Nc1c(C(=O)Nc2ccccc2F)sc2nc(Cc3ccccc3)cc(C(F)(F)F)c12
i	1.8	Nc1ncc2c(n1)CCN(c1ccc([N+](=O)[O-])cc1)C2
i	-0.94	Cc1cc2c(c(=O)n1Cc1ccccn1)C(c1ccc3c(c1)OCO3)C(C#N)=C(N)O2 (stereo not drawn)
i	2.4	Nc1cc(=O)[nH]c(SCC(=O)Nc2ccccc2Sc2ccc(Cl)cc2)n1
i	-2.9	O=C(NC1CCCC1)C(c1ccsc1)N(Cc1ccccc1)C(=O)Cc1cccs1 (stereo not drawn)
i	-1.7	Cc1ccc(C(=O)N2CCN(Cc3nc4sc5c(c4c(=O)[nH]3)CCCC5)CC2)cc1
i	-0.43	COc1ccc([C@@H]2C(C#N)=C(N)S[C@@H](c3ccccc3)[C@@H]2[N+](=O)[O-])cc1
i	0.63	COc1cccc(-c2nnc(SCc3cccnc3)o2)c1
i	0.69	COc1cccc(C(=O)NC2CC3CCCC(C2)N3CC(=O)Nc2ccc(N(C)C)cc2)c1 (stereo not drawn)
i	2.7	COc1ccccc1C(=O)N1CCN(C(=O)c2oc3ccc(C)cc3c2C)CC1
i	1.9	CCN(CC)C(=O)c1ccc2c(=O)n(CCOC)c(=S)[nH]c2c1
i	-0.75	COc1ccccc1Nc1ccc(S(=O)(=O)N2CCCCC2)cc1[N+](=O)[O-]
i	0.91	CCCCn1c(SCC(=O)Nc2ccc3c(c2)CCC3)nc2ccccc2c1=O
i	0.27	Cc1ccccc1NC(=O)CN1C(=O)S/C(=C/c2cccnc2)C1=O
i	-0.93	COc1ccc2[nH]c(=O)c(CN(CCCN(C)C)C(=O)Nc3ccccc3)cc2c1
i	0.67	O=C(CCc1ccc(S(=O)(=O)N2CCOCC2)cc1)N/N=C/c1ccc(O)c(O)c1O
i	0.72	Cc1cccn2cc(CCNS(=O)(=O)c3cccs3)nc12
i	0.24	COc1ccc(NCc2nnc(SCC(=O)Nc3cc(C(F)(F)F)ccc3Cl)o2)cc1
i	1.1	COc1cc(NC(=O)C2CCC(CNc3c(N4CCCCC4)c(=O)c3=O)CC2)cc(OC)c1 (stereo not drawn)
i	-0.37	Cc1cc(-n2nc3ccccc3n2)c(O)c([N+](=O)[O-])c1
i	-0.46	CC(c1nnc(SCC(=O)Nc2cc([N+](=O)[O-])ccc2F)n1Cc1ccccc1)N(C)C (stereo not drawn)
i	-0.1	COc1ccc(CN(C)C(=O)c2ccc3c(=O)n4c(nc3c2)CCC4)c(OC)c1
i	0.54	CC1(C)CC(=O)N(c2ccccc2)C1(C)O (stereo not drawn)
i	0.21	COc1ccc(C2OC(=O)C(C)(C)C(=O)C2(C)C)cc1OC (stereo not drawn)
i	0.22	COc1ccc(CCNC(=O)COC(=O)c2cnccn2)cc1
i	-0.4	CCOc1cc(S(=O)(=O)NCc2ccccc2)ccc1F
i	0.56	CCCc1ccc(OCC(O)CN2CCN(c3ccccc3)CC2)cc1 (stereo not drawn)
i	0.09	CCn1c(=NC(=O)C2COc3ccccc3O2)sc2c(OC)ccc(OC)c21 (stereo not drawn)
i	0.33	Cc1nc2ccccc2c(=O)n1/N=C/C=C/c1ccccc1
i	-0.91	Cc1cc(C)c(C#N)c(SCc2nc3ccccc3c(=O)[nH]2)n1
i	-1.2	CC1=CC(=C(C#N)c2nc3ccccc3s2)C=C(C)N1Cc1ccco1
i	0.08	c1ccc(CN(Cc2ccco2)C(c2ccncc2)c2nnnn2C2CCCC2)cc1 (stereo not drawn)
i	2.3	N#Cc1ccsc1NC(=O)C1CCCN1S(=O)(=O)c1cccs1 (stereo not drawn)
i	0.07	COc1ccc(CNC(=O)NS(=O)(=O)c2ccc(C)cc2)cc1
i	0.78	Cc1cccc2c1NC(=O)C21N2CCCC2C(C(=O)c2ccc3ccccc3c2)C12C(=O)Nc1ccccc12 (stereo not drawn)
i	-1.5	O=C(COC(=O)c1cc(Br)ccc1O)NCC1CCCO1 (stereo not drawn)
i	0.68	Cc1cccc(NC(=O)COC(=O)c2cc3ccccc3oc2=O)c1
i	-2.3	CN(C(=O)c1ccccc1C(=O)c1ccccc1)C1CCS(=O)(=O)C1 (stereo not drawn)
i	-1.6	Cc1ccc(C(C)C)cc1S(=O)(=O)NCc1ccccn1
i	-2.1	COC(=O)c1[nH]c(C)c(/C(O)=C2\C(=O)C(=O)N(CCN(C)C)C2c2ccc(C)o2)c1C (stereo not drawn)
i	1.5	Cc1ccc(C(=O)NCCN(C)C)c(C)c1
i	-0.03	C=CCn1c(C)c(C(C)=O)c(N2CCCC2)nc1=S
i	2.4	COC(=O)c1cc(NC2c3ccccc3C(=O)N2c2ccc(Cl)cn2)cc(C(=O)OC)c1 (stereo not drawn)
-5.7*	2.4*	CCOC(=O)CCSc1nc(C)cc(C(F)(F)F)c1C#N
i	-0.07	O=C(COc1cccc2cccnc12)Nc1ccccc1N1CCOCC1
i	-1.3	CC(/C=C/c1ccc2c(c1)OCO2)=N/NC(=O)c1ccc(C)nc1
i	0.09	O=C(c1ccc2c(c1)OCO2)N(Cc1cccs1)C1(C(=O)NC2CCCCC2)CCCCC1
i	-1.4	N#C/C(=C/c1ccc([N+](=O)[O-])cc1)C(N)=O
i	-1.8	CCCOc1ccc(C(C)=O)cc1CSc1nc(O)cc(=O)[nH]1
i	-0.04	O=C(NCCN1CCN(c2ccccc2F)CC1)C1c2ccccc2C(=O)N2CCc3ccccc3C12 (stereo not drawn)
i	-1.1	O=C(NCC1CCCO1)C(=O)N/N=C/c1cccc(Cl)c1 (stereo not drawn)
i	6.1	COc1cc(/C=C2\SC(N)=NC2=O)cc(Cl)c1O
i	0.58	CCCOc1ccc(CNC(=S)N/N=C/c2ccc([N+](=O)[O-])cc2)cc1
i	-1.4	CC/C(=N\NC(=O)CSCc1ccccc1Cl)c1ccc2c(c1)OCCO2
i	1.1	O=[N+]([O-])c1ccc(Cl)cc1NCCCN1CCOCC1
i	3.1	Cc1nnc(SCC(=O)Nc2ccc(N(C)C)cc2)n(N)c1=O
i	-1.7	N#C/C(=C(/O)C(Cl)c1ccccc1)c1nc2ccccc2s1 (stereo not drawn)

6 records drawn at random from the list so far, as already listed:
KCNQ2 block	KCNQ2 block baseline	SMILES
i	-1.1	O=C(NCC1CCCO1)C(=O)N/N=C/c1cccc(Cl)c1 (stereo not drawn)
i	-0.29	OC(CSc1ccc(F)cc1)CN1CCN(c2ccccc2)CC1 (stereo not drawn)
i	2.7	COc1ccccc1C(=O)N1CCN(C(=O)c2oc3ccc(C)cc3c2C)CC1
i	-2.1	Cc1cc(Cl)cc(Cl)c1OCCOc1cccc2cccnc12
i	-0.04	O=C(NCCN1CCN(c2ccccc2F)CC1)C1c2ccccc2C(=O)N2CCc3ccccc3C12 (stereo not drawn)
i	0.56	CCCc1ccc(OCC(O)CN2CCN(c3ccccc3)CC2)cc1 (stereo not drawn)

Additional results:
KCNQ2 block	KCNQ2 block baseline	SMILES
i	0.42	COc1ccccc1NCC(=O)N/N=C/C=C/c1ccccc1
i	-1.2	Cc1ccc(NC(=O)Nn2cnnc2)cc1Cl
i	0.22	COc1ccc(/C=N/Nc2nc(-c3ccc(Cl)cc3)cc(C(F)(F)F)n2)cc1OC
i	0.89	COC(=O)c1ccc(COc2cc(O)c3c(c2)OC(C)(C)CC3=O)cc1
i	0.07	Cc1ccccc1/C=N/N1CCN(c2ccccc2)CC1
i	-0.99	O=C(Nc1cccnc1Cl)c1cc(-c2ccc(Br)cc2)on1
i	-0.67	Cc1ccc(NC(=S)Nc2ccc(S(=O)(=O)Nc3ncccn3)cc2)cc1Cl
i	0.33	CCc1cccc(CC)c1C(O)c1cccnc1 (stereo not drawn)
i	-0.48	O=C(c1ccc(=O)oc1)N1CCCc2ccccc21
i	1.1	O=C(C[n+]1ccccc1)Nc1nc2ccccc2s1
i	0.01	COc1ccc(-c2nsc(C(=O)N(c3ccc(F)cc3)C(C(=O)NC3CCCC3)c3ccc(OC)cc3)c2N)cc1 (stereo not drawn)
i	0.51	COc1ccccc1NC(=O)CSc1nnnn1-c1ccc(C(=O)O)cc1
i	0.83	O=C(COC(=O)CCCNC(=O)c1ccc(Cl)cc1)NCc1ccccc1Cl
i	0.1	O=C(Cc1ccc(S(=O)(=O)N2CCOCC2)s1)N1CCN(S(=O)(=O)c2cccc(Cl)c2)CC1
i	0.13	COC(=O)c1cc(Cl)c(NS(=O)(=O)c2ccccc2)cc1OC
i	0.03	CC(=O)c1cc(-c2ccccc2)n(CC(=O)NCc2cccs2)c1C
i	1.4	CCOC(=O)C1(CCOc2ccccc2)CCN(Cc2ccc(C#CCCO)cc2)CC1
i	2	Cc1ccc(NC(=O)CCNS(=O)(=O)c2ccc3c(c2)oc(=O)n3C)c(C)c1
i	-0.29	O=C(NCC1CCCO1)c1ccc2c(=O)n(Cc3cccc(Br)c3)c(=S)[nH]c2c1 (stereo not drawn)
